Screens: PubChem, National Center for Advancing Translational Sciences (NCATS)
Prx2 Sm inh = Schistosoma Mansoni Peroxiredoxins (Prx2); AID 448, 2006; hit rate 0.07% among 65,000; Schistosoma mansoni peroxiredoxin 2 (Prx2); Potency, µM; S. mansoni Prx2 activity coupled to TGR/GSH (TGR is thioredoxin glutathione reductase), NADPH fluorescence loss, qHTS; some inactives read as strong as hits; active means full or partial inhibition curve with a strong effect at the top dose; inconclusive means weaker partial or single-point curve; inactive means no accepted curve; also: series up to 57 µM; many of its hits are not listed in these tables
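Purified S. mansoni TGR and Prx2 in pH 7.4 phosphate buffer with EDTA and Tween-20 were preincubated with compounds for 15 min. Further NADPH/GSH was added, then a 2.5 mM H2O2 aliquot initiated turnover, followed kinetically by NADPH fluorescence.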
Anthrax LT inh = qHTS Assay for Anthrax Lethal Toxin Internalization. Cells, anthrax lethal toxin internalization, FRET ratio (460/530). hit rate 0.67% among 70,000. Potency, µM (top dose mostly 40 µM), for the others: at the highest dose activity change, negative = inhibition, usual class: inhibitors; active = well fitted falling ratio curve with the 530 nm signal flat; inconclusive = other ratio curves, or a change in one channel alone; inactive = flat curves in the ratio and both channels; the % refers to the ratio; also: % is scaled to controls: 0 for no effect and ±100 for the full control effect; nearly all actives have a fitted effect of over 50% in size; tested in ME-180 cells; beta-lactamase reporter
An asterisk follows results filed as active; ? = inconclusive; . = not tested or not shown; & = joins results of further samples; [ ] = another dose, or the depositor's remark. Potency is read from the fitted curve at half-maximal effect.

SMILES	Prx2 Sm inh	Anthrax LT inh
Cc1cc(C(=O)CSc2nnnn2C)c(C)n1-c1cccc(F)c1	>57	-1.7%
O=C(COc1ccc(CO)cc1)Nc1ccc(F)cc1	>57	6.2%
COc1ccccc1CNc1cc(-c2ccccc2Cl)ncn1	>57	-0.2%
CCCOc1ccc(OCCSc2ncccn2)cc1	>57	-15.3%
CCCOc1c(OC)cccc1C1CC(=O)Nc2cc3c(cc21)OCCO3 (configuration not stated)	>57	-9.6%
COc1cc(OC)cc(C(=O)Nc2ccc(-c3nc4ccccc4o3)cc2)c1	.	?
CCCCN(CC)CCNc1c(NC2CCN(C(=O)OCC)CC2)c(=O)c1=O	>57	-16.1%
Cc1ccccc1OCC(O)Cn1c(NCc2ccco2)nc2c1c(=O)n(C)c(=O)n2C (configuration not stated)	>57	-18.4%
CCSc1ccccc1C(=O)Nc1nncs1	>57	?
COc1ccccc1-c1nc(NCCc2cnc[nH]2)c2ccccc2n1	>57	-4.5%
CCn1c(=O)cc(OCC(=O)NCCCN2CCC(C)CC2)c2ccccc21	>57	8.3%
CCN(CC)c1ncnc2c1ncn2[C@@H]1O[C@@H](COP(=O)(O)OP(=O)(O)C(Br)(Br)P(=O)(O)O)[C@H](O)[C@H]1O	>57	?
COc1ccc(C(=O)CCC(=O)O)cc1	>57	1.7%
C=CCC1c2cccc(C(=O)O)c2C(=O)N1c1ccc(F)cc1 (configuration not stated)	>57	-17.9%
CCOc1ccc2oc(-c3ccccc3)c(C(=O)N3CCN(C)CC3)c2c1	.	-26.7%
O=C(C1Cc2ccccc2O1)N1CCCCC1 (configuration not stated)	.	-7.3%
COc1cccc(OCC(O)CN2CCOCC2)c1 (configuration not stated)	>57	13.7%
NC(=O)C1(N2CCCCC2)CCN(C(=O)c2ccc(C#Cc3ccccc3)o2)CC1	>57	-21.8%
Cc1sc2nc3n(c(=O)c2c1C)Cc1ccccc1-3	>57	1.2%
CS(=O)(=O)N1CCC2(CC1)CN(Cc1ccccc1)C2	>57	-10.8%
CCC(Oc1ccccc1)C(=O)Nc1ccc(S(=O)(=O)NCC2CCCO2)cc1 (configuration not stated)	>57	-3.7%
COc1ccc(N2C(=O)C(Cl)=C(Nc3c(C)n(C)n(-c4ccccc4)c3=O)C2=O)cc1	>57	0.4%
Cc1ccc(C(=O)C2=C(O)C(=O)N(CCCn3ccnc3)C2c2ccc(OC(C)C)cc2)o1 (configuration not stated)	>57	-0.6%
CO[C@H]1[C@@H](OC(N)=O)[C@H](O)[C@@H](Oc2ccc3c(O)c(NC(=O)c4ccc(O)c(CC=C(C)C)c4)c(=O)oc3c2C)OC1(C)C	>57	?
CS(=O)(=O)Nc1cccc(-c2ccc3ncnc(NCc4cccs4)c3c2)c1	>57	?
O=C(O)CCSCc1ccccc1	>57	1.0%[8 µM]
COc1cccc(-c2nc(NCCN3CCOCC3)c3ccccc3n2)c1	>57	9.0%
[O-][n+]1ccc(C2CC2)cc1	>57	-9.2%
Cc1sc2c(c1C)CN(Cc1ccco1)CN2C(=O)c1ccccc1	>57	?
C[N+]1(C)CCO[C@@](O)(c2ccc(-c3ccc([C@]4(O)C[N+](C)(C)CCO4)cc3)cc2)C1	>57	0.2%
O=C(COC(=O)c1ccccn1)Nc1cccc(Cl)c1	>57	-9.7%
Cc1cc(-n2c(C)cc(C(=O)CSc3nnnn3-c3ccc(Cl)cc3)c2C)no1	>57	1.1%
OC(COc1ccc2ccccc2c1)CN1CCN(c2ccc(F)cc2)CC1 (configuration not stated)	>57	?
CCSc1nnc(NC(=O)CSc2nc3c(c(=O)n2-c2ccccc2OC)SCC3)s1	>57	16.0%
O=C(O)CSCC(=O)c1ccccc1	>57	-10.7%
COC(=O)C1CCN(C(=O)c2c(-c3ccccc3Cl)noc2C)CC1	>57	-6.7%
NS(=O)(=O)c1cc2c(cc1Cl)NC=NS2(=O)=O	>57&>57	-10.4%
O=C(Nc1ccc2c(c1)OCO2)c1c(F)c(F)c(F)c(F)c1F	>57	.
CCOC(=O)c1ccoc1CSCc1ccc(C(=O)OC)o1	>57	-12.4%
O=c1[nH]c(NCc2ccccc2)nc2c1CCCC2	>57	11.3%
CCCCn1nnnc1SCC(=O)Nc1sc2c(c1C#N)CCCC2	>57	-7.3%
Brc1ccc(-c2nnc3sc(CN4CCN(c5ccccc5)CC4)cn23)cc1	>57	5.7%
CSCCC(Nc1ncnc2ccc(Br)cc12)C(=O)O (configuration not stated)	>57	-11.0%
CCOC(=O)c1ccc(NC(=O)CSc2ncccn2)cc1	>57	.
Cn1cccc1C(=O)N1CCC2(CCCN(Cc3ccc(C#N)cc3)C2)CC1	>57	?
COc1ccc2c(Cl)c(C(N)=O)sc2c1	>57	10.5%
COCCNC(=O)C(c1ccco1)N(C(=O)Cn1nnc2ccccc21)c1cccc(C)c1C (configuration not stated)	>57	-0.2%
O=S(=O)(O)c1ccc2c(N=Nc3cccc4ccccc34)c(O)c(S(=O)(=O)O)cc2c1	>57	-3.3%[8 µM]
CCOC(=O)c1cccc(NC(=O)c2cnccn2)c1	>57	6.1%
O=C(COc1ccccc1)NCCSc1ccccc1	>57	-6.6%
Cc1onc(-c2ccccc2)c1C(=O)Nc1ccccc1N1CCOCC1	>57	.
O=C(O)CCSC1=NCCN1	>57	-0.7%[8 µM]
C[C@H]1CC[C@]2(OC1)O[C@@H]1C[C@@H]3[C@@H]4CC[C@H]5C[C@@H](O)CC[C@]5(C)[C@@H]4CC(=O)[C@@]3(C)[C@H]1[C@@H]2C	>57	-2.1%[3.58 µM]
O=C(NCc1ccccn1)Nc1cccc(Cl)c1	>57	-6.2%
CCOC(=O)c1c(C)c(P(=S)(N2CCOCC2)N2CCOCC2)n(C)c1C	>57	-5.1%
CCOc1ccccc1C(=O)NC1CCN(Cc2nnnn2C2CCCC2)CC1	>57	2.1%
COc1cccc(-c2cc(=O)c3cc(O)ccc3o2)c1	>57	?
CC1=C(C(=O)OCC(C)C)C23C(=O)c4ccccc4C2(O1)OC(N)=C3C#N (configuration not stated)	>57	-9.1%
Cn1c(=O)c2[nH]cnc2n(C)c1=O.[CH2-][C@H](Cc1cccc2cc(C(=O)O)c(=O)oc12)OC.[Hg].[OH-]	?	?
N#CC(C#N)=C(N)/C(C#N)=C/c1ccc(O)cc1	>57	-2.2%

Profiles, looked up by structure. Order of screens: Prx2 Sm inh	Anthrax LT inh
O=S(=O)(O)c1ccc2c(N=Nc3cccc4ccccc34)c(O)c(S(=O)(=O)O)cc2c1 is entered as >57	-3.3%[8 µM]
CCOC(=O)c1cccc(NC(=O)c2cnccn2)c1 is entered as >57	6.1%
CC1=C(C(=O)OCC(C)C)C23C(=O)c4ccccc4C2(O1)OC(N)=C3C#N (configuration not stated) is entered as >57	-9.1%
COc1ccc2c(Cl)c(C(N)=O)sc2c1 is entered as >57	10.5%

Further records follow.
SMILES	Prx2 Sm inh	Anthrax LT inh
O=C(CSc1nc2ccsc2c(=O)n1NC(=O)c1ccccc1)Nc1nccs1	>57	22.4%
CC(=O)c1cc2c(cc1NS(=O)(=O)c1ccc(C)cc1)OCCO2	>57	14.6%
COc1ccccc1C1C(C(N)=O)=C(C)Nc2nc(-c3ccccc3Cl)nn21 (configuration not stated)	>57	6.0%
CCOC(=O)N1CCC(NC(=O)c2ccc3c(c2)N(CC)CCS3)CC1	>57	8.7%
O=C(Cn1cc2c(n1)CCCCC2)NC1CCN(Cc2ccccc2)CC1	>57	?
Cc1ccccc1Nc1nnc(SCC(=O)NC(=O)NCc2ccco2)s1	>57	6.8%
N#Cc1ccc(CN2CCC3(CC2)CCN(C(=O)c2cc(C(F)(F)F)cc(C(F)(F)F)c2)CC3)cc1	>11.4	-1.4%
CCSc1nc2cc(OC)c(OC)cc2c(=O)n1CC	>57	-5.0%
CCc1c(C)c2c(C)[nH]nc2oc1=O	>57	-3.1%
COc1ccc(CCNC(=O)CCCCn2c(=O)[nH]c3ccccc3c2=O)cc1OC	>57	-24.6%
Cc1ccc(Cl)cc1N1CCN(C(=O)Cn2ccc3ccccc3c2=O)CC1	>57	?
Cc1cccc2cc(CN(Cc3cccs3)Cc3nnnn3Cc3ccccc3)c(=O)[nH]c12	>57	-18.4%
O=C(O)[C@@H]1CCCN1	>57	?
O=C(NCc1ccco1)[C@@H]1CSC2c3ccccc3C(=O)N21 (some centres not stated)	>57	3.0%
Cc1sc2ncnc(OCC(=O)c3ccc(S(=O)(=O)N4CCCC4)cc3)c2c1C	>57	?
COc1ccc(NC(=O)N2CC[C@@]3(CCCN(C(=O)c4ccc(OC)cc4)C3)C2)cc1	>57	?
COc1ccc2cc3cc(C(=O)NCC4CCCO4)oc3nc2c1 (configuration not stated)	>57	8.4%
Cc1nn(C)c(C)c1S(=O)(=O)NCc1cccs1	>57	16.7%
COc1ccc(S(=O)(=O)N2CCN(Cc3cccc(Cl)c3)CC2)cc1	.	?
Cc1cc(C)n(-c2nc3c(c(=O)[nH]c(=O)n3C)n2CC(O)COc2ccccc2C)n1 (configuration not stated)	>57	4.7%
COc1ccccc1N(CC(=O)NC(C)(C)C)C(=O)Cn1nnc(-c2ccc(C)o2)n1	>57	2.0%
c1ccc(N2CC[N+]3(CCCC3)CC2)nc1	>57	.
CCOC(=O)c1c(C)c(C(=O)NCc2cccnc2)c(C)n1C	>57	-10.8%
Cc1sc2ncnc(SCC#N)c2c1C	>57	-20.4%
COc1ccc(CCNC(=O)C2CC2)cc1OC	>57	-10.4%
C=CCn1c(-c2ccccc2)c[nH]c1=S	>57	-18.8%
O=c1cc(-c2ccc(O)c(O)c2)oc2cc(O[C@@H]3O[C@@H](CO)[C@@H](O)[C@@H](O)[C@H]3O)cc(O)c12	>25.6	?
Cc1cccc(OCC(O)CN2C(C)(C)CC(O)CC2(C)C)c1C (configuration not stated)	>57	-2.8%
Clc1ccccc1-c1nnc2sc(C3COc4ccccc4O3)nn12 (configuration not stated)	>57	-14.4%
CCc1cccc(C)c1NC(=O)CSc1nnc(-c2cc3cc(Br)ccc3o2)n1CC	>57	-17.5%
CCN(CC)S(=O)(=O)c1ccc(OC(C)C)nc1	>57	-19.6%
CCN1CCN(C(=O)Cc2coc3cc(C)cc(C)c23)CC1	>57	0.4%
Cc1ccc(S(=O)(=O)Cc2ccc(C(=O)NCCCN3CCN(C)CC3)o2)cc1	>57	.
CCCC(=O)Nc1ccc(N2CCN(C(=O)CCC)CC2)cc1	>57	-6.4%
O=S(=O)(c1ccccc1)c1nc(-c2ccco2)oc1N1CCOCC1	>57	-1.2%
COc1ccc(NCc2c(O)ccc3ccccc23)cc1	>57	-3.3%[8 µM]
CCOC(=O)C1=C(C)N(C)C(=O)NC1c1ccccc1OC (configuration not stated)	.	-9.6%
C(=C\c1ccccc1)/CSc1nnc(-c2ccncc2)n1Cc1ccco1	>57	-6.9%
Cc1noc(C)c1S(=O)(=O)N1CCN(Cc2ccc3c(c2)OCO3)CC1	>57	-0.6%
Cc1cccc2cc(CN(CC3CCCO3)C(c3nnnn3Cc3ccco3)C(C)C)c(=O)[nH]c12 (configuration not stated)	>57	?

The final two compounds of the part above lead into the next.
SMILES	Prx2 Sm inh	Anthrax LT inh
Cc1noc(C)c1S(=O)(=O)N1CCN(Cc2ccc3c(c2)OCO3)CC1	>57	-0.6%
Cc1cccc2cc(CN(CC3CCCO3)C(c3nnnn3Cc3ccco3)C(C)C)c(=O)[nH]c12 (configuration not stated)	>57	?
CCCCn1c(S(=O)(=O)O)nc2ccccc21	>57	-3.4%
COc1ccc(-c2oc3ccc(C)cc3c(=O)c2O)cc1OC	>57	?
Fc1cccc(NCc2cn3ccccc3n2)c1	>57	-23.8%
OC(COc1ccc2ccccc2c1Br)Cn1ccnc1 (configuration not stated)	>57	20.6%
C[N+](C)(C)[C@H](Cc1c[nH]c(=S)[nH]1)C(=O)O	>57	10.0%[8 µM]
Cc1ccc(S(=O)(=O)N(CC(O)CN2CCCC2)c2ccccc2)cc1 (configuration not stated)	>57	?
CCOC(=O)Cc1csc(NC(=O)CSc2nnc(-n3nc(C)cc3C)c3ccccc23)n1	>57	0.3%
Brc1ccc(Oc2nnnn2-c2ccccc2)cc1	>57	?
Cc1cccn2cc(CNc3ccccc3)nc12	>57	-8.7%
COc1ccccc1-c1noc(-c2ccccc2C(=O)N2CCOCC2)n1	>57	-1.2%
Cc1nn(CC(=O)Nc2ccc(C(=O)N3CCCC3)cc2)c(=O)c2ccccc12	>57	-17.9%
COc1nc(NCC(C)C)nc(Oc2ccc(=O)n(-c3ccccc3)n2)n1	>57	-25.0%
Cn1c(C(C#N)C2=C(Cl)C(=O)N(c3ccccc3)C2=O)nc2ccccc21 (configuration not stated)	>57	?
Cc1cc2nnc(SC3CCOC3=O)n2c2ccccc12 (configuration not stated)	>57	?
Nc1nc(-c2cccnc2)nn1C(=O)c1ccco1	>57	4.2%
C=CCN1CCc2cccc3c2[C@@H]1Cc1ccc(O)c(O)c1-3	>57	?
CN(C)Cc1cc(C(C)(C)C)cc(CN(C)C)c1O	>57	?
COc1ccc2[nH]c(=O)c(CN(Cc3cccnc3)C(=O)Nc3ccccc3)cc2c1	>57	-4.8%
CN(C)C(=O)Nc1ccc(F)cc1F	>57	3.1%
Brc1cccc(-c2nnc(SCc3ccon3)n2-c2ccccc2)c1	>57	?
C/C=C/c1ccc(OCCN2C(=O)NC(C)(C)C2=O)c(OC)c1	>57	-0.4%

An excerpt. The share of hits here may be higher or lower than overall.
